Screening data from PubChem.
Vaccinia Venus = qHTS for Stage-Specific Inhibitors of Vaccinia Orthopoxvirus: Venus Reporter Primary qHTS; Vaccinia virus Venus reporter expression, fluorescence; Potency, µM (titrated, usually from 36.5 µM), for the others: at the highest dose activity change, negative = inhibition, most hits filed as inhibitors; 330,000 compounds, 0.46% hits; AID 720580, 2013; active means well fitted inhibition curve with a large enough effect; inconclusive means small, poorly fitted or top-dose-only effect; inactive means no such curve, though single readings can be large or run the other way; tested in A549 cells; note: nearly all actives have a fitted effect of over 30% in size; inactives centre near -10
Vaccinia mCherry = qHTS for Stage-Specific Inhibitors of Vaccinia Orthopoxvirus: mCherry Reporter Primary qHTS. Vaccinia virus mCherry reporter infection, fluorescence; about a quarter of the inactives have no number. 310,000 compounds, 0.63% hits. Potency, µM (doses to about 36.5 µM), for inactives: top-dose activity change, negative = inhibition, actives largely listed as inhibitors. AID 720579, 2013; active = well fitted inhibition curve with a large enough effect; inconclusive = small, poorly fitted or top-dose-only effect; inactive = no such curve, though single readings can be large or run the other way; tested in A549 cells; note: nearly all actives have a fitted effect of over 35% in size; inactives centre near -10
* marks the source's active call; other numbers are inactive results; i = inactive; ? = inconclusive; · = not tested or not shown; & = joins results of further samples; [ ] = another dose, or the depositor's remark. % is set by controls: 0 for no effect and ±100 for the full control effect; potency is the fitted concentration of half-maximal effect.

SMILES	Vaccinia Venus	Vaccinia mCherry
Cc1onc(-c2ccccc2)c1C(=O)Nc1cc(C(F)(F)F)ccc1N1CCOCC1	?	?
O=C(OCc1ccccc1)c1cc(S(=O)(=O)N2CCCCC2)ccc1N1CCOCC1	-16%	-2%
COc1ccc(-c2[nH]ncc2CN2CCN(C3CCCCC3)C(=O)C2)cc1F	-12%	0%
CC(=O)Nc1ccccc1NC(=O)c1ccccc1-c1ccccc1	-4%	-9%
COc1ccc2c(c1)-c1nc(/N=C/c3ccccc3O)sc1CC2	-17%	-7%
COC(=O)C1=C(NC(=O)C2CCCCC2)CCS1	-4%	-1%
COc1ccc(Cc2nc3c4cnn(-c5ccccc5Br)c4ncn3n2)cc1	-12%	-13%
CCN1C(=O)C(O)(C2COC(C)(C)CC2=O)c2ccccc21 (stereo not drawn)	-1%	-8%
COc1ccc(C=O)cc1CSc1ncccc1C(=O)O	-4%	i
COc1cc(Cl)c(C)cc1NC(=O)CCn1c(=O)c2cccn2c2cccnc21	-2%	-3%
Cc1ccc(CSC2=NCCN2S(=O)(=O)c2ccccc2)cc1	-13%	-13%
COc1cc(NC(=O)CCC(=O)OCCCC(F)(F)C(F)(F)F)nc(OC)n1	-20%	-2%
O=S(=O)(c1ccccc1F)N1CCC(c2nc3ccccc3[nH]2)CC1	-7%	11%
COc1ccc(S(=O)(=O)N2CCC(C(=O)NC3CC(C)(C)NC(C)(C)C3)CC2)cc1	-12%	i
COc1ccccc1Cc1c(-c2ccccc2)nc2c(C)cc(Br)cn12	-24%	-9%
Cn1c(C(=O)N2CCN(c3ccc([N+](=O)[O-])cc3)CC2)cc2c(=O)[nH]c3ccccc3c21	-15%	i
Nc1nonc1-c1nc2ccccc2n1CC(=O)Nc1cccc(Cl)c1Cl	2%	-9%
NC(N)=N/N=C/c1c(Cl)cccc1Cl	-12%&-24%	-19%&-6%
COc1ccc(NC(=O)CSc2nnc(-c3ccoc3C)n2CC2CCCO2)cc1 (stereo not drawn)	-10%	-18%
Nn1c(SCC(=O)Nc2ccc3c(c2)OCCO3)nnc1-c1ccccn1	-2%	-13%

A few values from above:
`O=C(OCc1ccccc1)c1cc(S(=O)(=O)N2CCCCC2)ccc1N1CCOCC1` @ Vaccinia Venus = -16%
`Cc1ccc(CSC2=NCCN2S(=O)(=O)c2ccccc2)cc1` @ Vaccinia mCherry = -13%
`CCN1C(=O)C(O)(C2COC(C)(C)CC2=O)c2ccccc21` (stereo not drawn) @ Vaccinia Venus = -1%

(cont.)
SMILES	Vaccinia Venus	Vaccinia mCherry
COc1cc2[nH]c(C(=O)N3CC(C)OC(C)C3)cc2c(OC)c1OC (stereo not drawn)	-4%	i
CCc1c(C)nc2nncn2c1Nc1ccc(C(C)C)cc1	-23%	-19%
CC(C)CCCC(C)C1CCC2C3CC=C4CC(O)CC[C@@]4(C)C3CC[C@@]12C (stereo partly drawn)	0%	i
Cc1cc(-c2nc(C)c(C(=O)NNS(=O)(=O)c3ccc(Cl)cc3Cl)s2)no1	13%	-7%
Cc1ccc(-c2nc(N3CCN(c4ccccc4Cl)CC3)c3ccccc3n2)cc1	0%	-5%
CCOC(=O)C1CCCN(C(=O)c2cc(S(=O)(=O)Nc3ccccc3OC)ccc2C)C1 (stereo not drawn)	-18%	i
CCOC(=O)C1=CCN(S(=O)(=O)c2ccc(Br)cc2)C1c1ccc(C)cc1 (stereo not drawn)	-9%	i
O=P(CCCO)(Cc1ccccc1)Cc1ccccc1	-9%	i
CSCCC(=O)N1CCN(CC(=O)N2CCCC2)CC1	-6%	i
COc1cc(/C=C/C(=O)OCC(=O)Nc2cc(S(=O)(=O)N3CCCCC3)ccc2C)ccc1O	-16%	-13%
S=C1NCCc2ccc(Cl)cc2C1c1ccccc1Cl (stereo not drawn)	-18%	i
Cc1ccc(C(c2nnnn2Cc2cccs2)N2CCN(C(=O)c3ccco3)CC2)cc1 (stereo not drawn)	-6%	i
Cn1cnnc1SCC(=O)NCCC1=CCCCC1	-6%	-13%
Fc1ccccc1CNc1ccc(Cl)c(Cl)c1	-11%	-13%
O=C1C=C2C(=CCOC2O)O1 (stereo not drawn)	11µM*	11µM*
COC(=O)c1[nH]c2ccc(C)cc2c1NC(=O)CN1CCC(C)CC1	-19%	-26%
CCOc1cc(N2CCOCC2)c(OCC)cc1NC(=O)C(C)Oc1ccccc1 (stereo not drawn)	-12%	-15%
O=C(COc1coc(CN2CCN(c3ccccc3)CC2)cc1=O)Nc1ccccc1	-3%	-9%
CC(=O)Nc1ccc(NC(=O)CC2SC(=O)N(CC(=O)c3ccccc3)C2=O)cc1 (stereo not drawn)	13%	6%
Clc1cccc(-c2ccc3nccn3c2)c1Cl	-14%	22%
NC[C@@H](O)c1ccc(O)c(O)c1	-6%	i
COC(=O)C1=C(CS(=O)(=O)c2cc(Cl)ccc2OC)NC(=O)NC1c1ccccc1 (stereo not drawn)	-9%	-8%
Cc1cc(/C=N/NC(=O)c2cccc([N+](=O)[O-])c2)c(C)n1-c1ccc(Cl)cc1Cl	-15%	·
CC(=O)Nc1ccc(S(=O)(=O)NC2CC(=O)N(c3ccc(C)c(C)c3)C2)cc1 (stereo not drawn)	-16%	-25%
CSCCC(NS(=O)(=O)c1ccccc1F)C(=O)NCCCn1nc(C)cc1C (stereo not drawn)	-7%	-12%
COc1ccc(C(=O)N2CCN(C(=O)COc3ccccc3)CC2)cc1OC	-1%	1%
COc1cc2sc3cc(NCCCN4CCOCC4)ccc3c(=O)c2cc1OC	?	?
COc1ccc(CNC(=O)C2CCCN(S(=O)(=O)c3cnc[nH]3)C2)cc1 (stereo not drawn)	-2%	14%
COC(=O)N(NC(=O)C(O)(C(C)C)C(C)C)c1ccccc1	-7%[7.34 µM]	-10%[7.34 µM]
Cc1cccc([C@H](NC(=O)OC(C)(C)C)C(=O)OC(C)(C)C)c1	-5%	i
CC1CCCC(NC(=O)CN2C(=O)c3cccnc3Oc3ccc(Cl)cc32)C1C (stereo not drawn)	2%[7.34 µM]	-12%[7.34 µM]
O=C(NCCCc1nc2ccccc2n1Cc1ccccc1)C1CCCCC1	-7%	-15%
CS(=O)(=O)/C(C#N)=C/c1cccn1S(=O)(=O)c1ccc([N+](=O)[O-])cc1	-1%	i
CCCCC(=O)N(C)c1c(CC)nc2c(OCc3ccccc3C)cccn12	-14%	-1%
CCC1=NN(C(=O)CCc2ccccc2O)C(O)(C(F)(F)F)C1 (stereo not drawn)	-19%	-15%
CCCSc1oc(-c2ccco2)nc1S(=O)(=O)c1ccc(Cl)cc1	-7%	-13%
COc1ccc(-n2cnc3sc(-c4ccccc4)cc3c2=O)cc1	-24%	-27%
CC1(C)CC[C@]2(C(=O)O)CC[C@]3(C)C(=CC[C@@H]4[C@@]5(C)CC[C@H](O[C@@H]6O[C@H](C(=O)O)[C@@H](O)[C@H](O[C@@H]7OC[C@H](O)[C@H](O)[C@H]7O)[C@H]6O)C(C)(C)[C@@H]5CC[C@]43C)[C@@H]2C1	7.9µM*	?
O=C(NCC1CCOCC1)c1ccc2nc(Cc3cccc(Cl)c3)oc2c1	-24%	i
COc1ccccc1NC(=O)CSc1ccc2nnc(CCNC(=O)c3ccccc3)n2n1	-17%	-5%
CN(C)/N=C/c1ccc(P(c2ccc(/C=N/N(C)C)o2)c2ccc(/C=N/N(C)C)o2)o1	-6%	-24%
Cc1cc(C)c2c(N)c(C(=O)NC3CC3)sc2n1	-21%	·
CCOc1cc(-c2ccccc2)nc2c1CN(S(=O)(=O)c1ccc(C)cc1)C(c1cccc(Cl)c1)C2 (stereo not drawn)	-1%	-6%
Cc1ccc2c(c1)c1c(c(=O)n(Cc3ccccc3)c(=O)n1CC(=O)Nc1ccccc1F)n2C	12%	10%
CC1CC(=O)N(CC(=O)Nc2ccc(F)cc2F)c2ccccc2S1(=O)=O (stereo not drawn)	-11%	-1%
COc1cccc(-n2c(SCC(=O)NC3CCCCC3)nc3n[nH]c(C)c3c2=N)c1	?	?
O=c1ccc(/C=C/c2ccccc2)nn1Cc1ccccc1	-17%	·
CCN1CCc2c(sc(N)c2C(N)=O)C1	-7%	·
CCCc1cc(=O)[nH]c(SCc2nc(-c3ccc(C)cc3)no2)n1	-14%	-19%
CCc1ccc(Nc2nc3ccccc3c3nnc(C)n23)cc1	-3%	-10%
CCOc1ccc(N(CC(=O)NCCSc2ccccn2)S(C)(=O)=O)cc1	-15%	-16%[1.46 µM]
CCN1CCc2ccccc2C1	-6%	-9%
COc1cc(NC(=O)N2CCC(CN3CCc4ccccc4C3)CC2)cc(OC)c1	-23%	-17%
CCc1ccc(NC(=S)N(CCCN2CCOCC2)Cc2ccco2)cc1	-11%	i
Cn1c(SCC(=O)Nc2sccc2C#N)nnc1-c1ccccc1	-15%	i
CC(C)(C)OC(=O)Nc1ccc([C@@H](NC(=O)OC(C)(C)C)C(=O)OC(C)(C)C)cc1	-3%	i
CCOC(=O)C1CCN(C(=O)c2ccc(C)c(NC(=O)c3nsc4ccccc34)c2)CC1	-8%	-5%
O=C1C(N2CCOCC2)=C(n2nnc3ccccc32)C(=O)c2ccccc21	?	?
Cc1cccc(N2CCN(C(=O)C3CCN(C(=O)c4cc5sccc5n4C)CC3)CC2)c1C	-28%	-15%
COc1ccc(OCC(=O)Nc2ccc(NC(=O)c3cccs3)c(OC)c2)cc1	-1%	-6%

6 records picked at random from those above:
SMILES	Vaccinia Venus	Vaccinia mCherry
CC1CC(=O)N(CC(=O)Nc2ccc(F)cc2F)c2ccccc2S1(=O)=O (stereo not drawn)	-11%	-1%
COc1cc(NC(=O)N2CCC(CN3CCc4ccccc4C3)CC2)cc(OC)c1	-23%	-17%
CCCc1cc(=O)[nH]c(SCc2nc(-c3ccc(C)cc3)no2)n1	-14%	-19%
Cc1ccc2c(c1)c1c(c(=O)n(Cc3ccccc3)c(=O)n1CC(=O)Nc1ccccc1F)n2C	12%	10%
CCc1ccc(NC(=S)N(CCCN2CCOCC2)Cc2ccco2)cc1	-11%	i
CC(C)(C)OC(=O)Nc1ccc([C@@H](NC(=O)OC(C)(C)C)C(=O)OC(C)(C)C)cc1	-3%	i

Some of the entries above, set out differently.
SMILES | Vaccinia Venus | Vaccinia mCherry
CCOc1ccc(N(CC(=O)NCCSc2ccccn2)S(C)(=O)=O)cc1 | -15% | -16%[1.46 µM]
CCN1CCc2ccccc2C1 | -6% | -9%

(listing goes on)
SMILES	Vaccinia Venus	Vaccinia mCherry
CCC(C)Sc1cc(C)c(C#N)c2nc3ccccc3n12 (stereo not drawn)	-17%	-16%
Cc1oc2c(c1C(=O)NCc1cccnc1)C(=O)c1ccccc1C2=O	0.56µM*	?
O=C(CSc1nnc(-c2ccccc2)c(-c2ccccc2)n1)N1CCOCC1	-16%	-1%[1.46 µM]
Cn1c(=O)c2c3c(sc2n2cnnc12)CCC3	-3%	-14%
COc1cc2c(cc1O)[C@@H]1Cc3ccc(OC)c(O)c3CN1CC2	-19%	-3%
COc1ccc(NS(=O)(=O)c2cc(OCC(N)=O)c(C)cc2Cl)cc1	-26%	-25%
CC(=O)c1ccc(Oc2cc(C)nc(-n3nc(C)cc3C)n2)cc1	-28%	·
COc1ccc2[nH]cc(CCNS(=O)(=O)c3ccc(F)cc3)c2c1	-7%	-11%
Cc1ccc(C)c(N2CCN(C(=O)Cc3c(C(=O)O)c(C)cn3C)CC2)c1	-6%	-4%
Cc1cc([N+](=O)[O-])ccc1NC(=S)NC(=O)Cc1ccccc1	-9%	-17%
COc1ccc(-c2nc3ccccc3c(=O)n2CCOc2c(C)cccc2C)cc1	-8%	i
CC(OC(=O)c1ccccc1OCc1ccc(Cl)cc1)C(N)=O (stereo not drawn)	-14%	-11%
COc1ccc(OC)c(/C=C2\Oc3cc(OCC(=O)N4CCC[C@H]4C(=O)O)ccc3C2=O)c1	-5%	-6%
CCN(C(=O)CN1C(=O)c2ccccc2Sc2ccc(C(=O)OC)cc21)c1cccc(C)c1	-16%	i
Cc1cc(C)cc(NC(=S)Nc2ccc3cn[nH]c3c2)c1	0%	i
O=C(Nc1cccc(Cl)c1)c1ccc(F)c(S(=O)(=O)N2CCN(c3ccccn3)CC2)c1	-24%	-29%
O=C(Nc1ccc(Br)cc1)c1cccc2c1C(=O)N(C1CCCCC1)C2	-5%	i
CC(=O)c1ccc[n+](C(C)CCC(C)[n+]2cccc(C(C)=O)c2)c1 (stereo not drawn)	-9%	22%
COc1ccc(C(=O)Nc2nc(N)n(-c3ccccc3)n2)cc1	-1%	-12%
O=C(Cc1ccccn1)c1ccccc1	1%	-4%
CCOC(=O)C1CCN(c2ncnc3c2[nH]c2cccc(OC)c23)CC1	-7%	·
Cc1ccccc1OCC(=O)OCC(=O)NC1CCCC(C)C1C (stereo not drawn)	-17%	-3%
COC(=O)C1=C(c2cc3ccccc3o2)C[C@@H]2CC[C@H]1N2C(=O)NC1CCCCC1	?	-19%
Nc1sccc1C(=O)NCc1ccccc1	7%	?
CCC(NC(=O)c1cc(COc2ccc(Cl)cc2OC)on1)c1ccncc1 (stereo not drawn)	-8%	i
CCCCSc1cc(C)nc(N)n1	-15%	i
COc1ccc(NC(=O)NNc2cc(N3CCOCC3)nc(N3CCOCC3)n2)cc1	-7%	-20%
COc1ccc(CN2CC(C(=O)NCCCN3CCN(C)CC3)CC2=O)cc1 (stereo not drawn)	4%	·
CCCn1c(=N)n(CC(=O)c2cccs2)c2ccccc21	-14%	-17%
CC(C)CN(Cc1cc(=O)oc2cc(-c3ccccc3)c(O)cc12)CC(C)C	3%	?
CN1CCN(C(=O)CCN2C(=O)c3ccccc3S2(=O)=O)CC1	-10%	-21%

Not a hit list. Share with any hit: about 0.86%.
